CBX7 inh: inhibitors of human CBX7 binding to H3K27me3 peptide; 66,000 compounds, 1.1% hits; AID 1224903; AlphaScreen His6-CBX7 / biotin-H3K27me3 peptide binding; stronger effect = lower value; normalised signal (fraction of DMSO) (concentration not given with the values); in the data active means normalised signal below about 0.5;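 further: 100 nL library stock added to about 20 µL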
Target sequence (O95931 whole entry, looked up): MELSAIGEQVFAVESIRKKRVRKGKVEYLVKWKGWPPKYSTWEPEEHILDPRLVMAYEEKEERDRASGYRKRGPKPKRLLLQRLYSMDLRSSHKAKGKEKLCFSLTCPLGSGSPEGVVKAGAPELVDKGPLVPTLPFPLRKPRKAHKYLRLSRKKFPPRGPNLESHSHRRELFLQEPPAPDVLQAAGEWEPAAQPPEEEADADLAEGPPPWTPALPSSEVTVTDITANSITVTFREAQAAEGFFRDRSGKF
CBX7 inh z-score: also measured in CBX7 inh; calls as there; z-score; measured here: z-score of CBX7 signal; some inactives read as strong as hits; reference of the scale not given here;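 same signal on another scale; lower means less binding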
The depositor's hits bear a star; & = joins results of further samples. An excerpt (hit frequency here may not be typical).

Value order: CBX7 inh, CBX7 inh z-score
- CCCCN(CCCC)S(=O)(=O)c1ccc2oc(C(=O)Nc3cc(C)ccc3OC)c(C)c2c1
    1.1, 4.1
- CCCCCOc1ccc(C(C)(O)C(CN2CCCCC2)c2ccccc2)cc1 (configuration not stated)
    1.2, 1.9
- COc1ccc(CNc2ncnc3c2c(-c2ccccc2)cn3-c2ccc(C)cc2)cc1
    0.98, -0.52
- CCC(=O)Nc1ccc2c(C)cc(C)nc2n1
    0.99, -0.42
- Cc1ccc(Cl)c(OCC(O)Cn2cnc3ccccc32)c1 (configuration not stated)
    0.68, -5
- O=C(Nc1cccnc1Cl)c1cc2c(s1)-c1ccccc1OC2
    1.1, 3
- COc1ccc(-c2nc3cc(NC(=O)c4cc(OC)cc(OC)c4)ccc3o2)cc1
    0.85, -5.3
- O=C(CC1(O)C(=O)N(Cc2ccc(Cl)cc2)c2ccccc21)c1ccc(Br)cc1 (configuration not stated)
    0.94, -3
- Cc1c(CNCCc2ccccc2)c(C(=O)O)c(C)n1Cc1ccccc1
    1, -0.066
- COc1ccccc1Cc1nc2ccccc2nc1SCC(=O)Nc1ccc(C)cc1C
    1.1, 1.2
- Cc1nc2ccc(S(=O)(=O)N(C)CC(=O)NCCc3ccccc3)cc2s1
    1.3, 1.6
- COc1cccc(C2=NOC(C(=O)N3CCN(C(c4ccccc4)c4ccccc4)CC3)C2)c1OC (configuration not stated)
    0.95, -1.9
- CC1(C(=O)Nc2nccs2)CC2c3ccccc3C1c1ccccc12 (configuration not stated)
    0.99, -0.056
- Cc1ccc(C(=O)Nc2ccc(Cl)c(-c3nc4cc(C)ccc4o3)c2)c(Cl)c1
    1.1, 0.089
- NC(=O)C1CCN(C(=O)CN2CCN(Cc3ccc(Cl)cc3)C2=O)CC1
    0.97, -0.47
- CCCCNC(=O)c1cc(-c2ccncc2)nc2ccccc12
    1, 0.8
- COc1ccc(NC(=O)CCS(=O)(=O)c2nc(-c3ccc4c(c3)OCO4)cc(C(F)(F)F)n2)cc1
    1, 0.25
- Cn1nc(-c2ccc(OCC(=O)N3CCCCC3)cc2)c2ccccc2c1=O
    1, 0.95
- CCCN1CCN(CCCNC(=O)CCN2C(=O)COc3ccccc32)CC1
    0.99, -0.17
- CCc1ccc(NC(=O)CSc2nccn2-c2ccccc2)cc1
    0.66, -13
- CCOC(=O)c1ccc(NC(=O)c2cccc3c2C(=O)N(c2ccc(OC)cc2)C3)cc1
    0.77, -5.6
- c1ccc(-c2nnc(-c3ccccc3)c3nonc23)cc1
    0.72, -3.1
- CCN(CC)CCCNc1nc(-c2ccc(Cl)cc2)nc2ccccc12
    1.1, 0.74
- CCOC(=O)N1CCC(Nc2c(NCCc3ccccc3)c(=O)c2=O)CC1
    1, 0.28
- CCC(Sc1nc(NCc2ccc(Cl)cc2)c2ccccc2n1)C(=O)NCc1cccnc1 (configuration not stated)
    1.1, 0.19
- O=C(NCCO)c1c2c(nc3ccccc13)CCCC2
    1.1, 2.2
- Clc1ccc(NCc2nc3ccccc3n2CCOc2ccccc2)cc1
    1, 1.5
- CC(=O)N1CCC(N(CCN2CCOCC2)C(=O)Nc2ccccc2)CC1
    1.1, 1.2
- CN1CCN(C(=O)c2nn3c(c2Cl)NC(c2ccccc2)CC3C(F)(F)F)CC1 (configuration not stated)
    1.1, 0.89
- Cc1ccc(-c2nc3cccc(C)n3c2Nc2ccccc2C)s1
    0.96, -0.41
- COc1cc(OC)cc(-c2nc3nc(C)c(CCC(=O)NCCc4cccc(C)c4)c(C)n3n2)c1
    1.2, 0.91
- Cc1ccccc1NC(=O)c1ccc(F)c(S(=O)(=O)N2CCN(c3ccccc3)CC2)c1
    0.99, -0.06
- COc1ccc(CN2C(=O)CN(C3CCCCCC3)C(=O)C2c2ccc(OC(C)C)c(OC)c2)cc1 (configuration not stated)
    0.77, -4.1
- O=C(NCc1ccc(Cl)cc1)C1CCN(C(=O)c2cnn(-c3ccccc3)c2-n2cccc2)CC1
    0.95, -0.11
- COc1ccc(Cn2c(=O)c3cccnc3n(CC(=O)Nc3ccc(Cl)cc3F)c2=O)cc1
    0.96, -0.71
- CCC(C)N1C(=O)CCC1C(=O)NCCc1ccc(Cl)cc1 (configuration not stated)
    1, 0.53
- COc1ccccc1-n1c(C)nc2cc(C(=O)NCCN3CCOCC3)ccc21
    0.98, -0.53
- Cc1ccc(CCNC(=O)c2cc3sccc3n2Cc2ccc(F)cc2)cc1
    1, 0.61
- CCOc1ccccc1NC(=O)c1cc(-c2cccs2)nc2ccccc12
    1.1, 1.3
- CCn1cc(C(=O)NCCOC)c(=O)c2ccc(C)nc21
    1, 0.08
- O=C(Nc1ccc(F)cc1)Nc1ccc(Cl)cn1
    0.93, -0.31
- COc1ccc2c(c1)CCc1c(C(=O)Nc3cc(Cl)ccc3Cl)noc1-2
    1.1, 2.1
- CN1CCN(CCCNC(=O)CN2C(=O)COc3ccccc32)CC1
    1, 0.078
- CCn1c(C(=O)N2CCCC(C(=O)NCCCc3ccccc3)C2)cc2sccc21 (configuration not stated)
    0.91, -2.6
- O=C1C(=O)N(CCCn2ccnc2)C(c2cccc(F)c2)C1=C(O)c1ccccc1 (configuration not stated)
    1, 0.57
- COc1cc(Cl)c(C)cc1NC1c2ccccc2C(=O)N1c1ccccc1C (configuration not stated)
    0.73, -3.2
- COc1ccc(-c2nn(C)c3sc(C(=O)NCCCN4CCC(C)CC4)cc23)cc1OC
    1.1, 0.67
- Cn1nc(CC(=O)Nc2nccs2)c2ccccc2c1=O
    0.89, -1.6
- Cc1cccc(OCc2nc(C#N)c(NCc3ccc4c(c3)OCO4)o2)c1
    0.43*, -10*
- Cc1c(C(=O)NCCN2CCOCC2)oc2ccc(S(=O)(=O)N3CCC4(CC3)OCCO4)cc12
    1.3, 2.6

Remaining list, next part.
Value order: CBX7 inh, CBX7 inh z-score
- COc1ccccc1OCCCn1c(C2CC(=O)N(c3cccc(Cl)c3C)C2)nc2ccccc21 (configuration not stated)
    0.98, -0.76
- CC1CCCCC1NS(=O)(=O)c1ccc2c(c1)CCN2C(=O)C1CC1 (configuration not stated)
    0.97, -0.8
- Brc1cccc(-c2nnc3sc(CN4CCC5(CC4)OCCO5)cn23)c1
    0.96, -0.52
- CCN1CCN(CCCNC(=O)c2ccc3nc(N4CCC(C)CC4)sc3c2)CC1
    1.4, 4.1
- COc1ccc(CCN2C(=O)N(c3ccc(F)cc3)C(=O)C2CC(=O)Nc2ccccc2)cc1 (configuration not stated)
    1, 0.17
- CCOc1ccc(C(=O)c2cn(Cc3ccccc3)c3ccc(F)cc3c2=O)cc1
    0.79, -0.73
- O=C(Cc1c(C(=O)O)[nH]c2ccccc12)NC1CCCC1
    0.96, -0.96
- Cc1ccnc(NC(=O)CCc2nc(-c3cccs3)no2)c1
    1, 0.95
- CC1CCN(S(=O)(=O)c2ccc3nc(-c4cccnc4)cc(C(=O)NCc4cccnc4)c3c2)CC1
    1, 1.1
- Cc1cccc(NC(=O)C2CCCN(S(=O)(=O)c3cccs3)C2)c1C (configuration not stated)
    0.99, -0.37
- Cc1cccc(C)c1NC1c2ccccc2C(=O)N1c1ccc(Cl)cn1 (configuration not stated)
    0.74, -7.1
- O=C(CSc1nc(-c2cccc(F)c2)[nH]c1-c1ccccc1)Nc1nccs1
    0.9, -1.8
- COc1cccc(-c2cc(C(F)(F)F)nc(-n3cncn3)n2)c1
    1, 1.1
- CCOc1ccc(Nc2oc(COc3cccc(Cl)c3)nc2C#N)cc1
    1.1, 0.46
- CCOC(=O)C1CCN(c2c(NCCN3CCCCCC3)c(=O)c2=O)CC1
    1.4, 6
- Cc1cccc(C)c1N(C)S(=O)(=O)c1ccc2[nH]cc(C(=O)N3CCCCCC3)c(=O)c2c1
    1.1, 0.66
- C=CCN1C(=O)c2ccccc2Sc2ccc(C(=O)NCc3ccccc3OC)cc21
    1.1, 0.097
- Cc1ccc(C(=O)c2oc3ccccc3c2NC(=O)COc2ccccc2F)cc1
    1.1, 0.29
- O=C(CCCN1C(=O)c2cccnc2C1=O)N1CCN(c2ccccc2)CC1
    0.49*, -4.9*
- COc1ccc(NC(=O)CCNS(=O)(=O)c2ccc3c(c2)CCC(=O)N3)cc1OC
    0.96, -1.8

5 compounds picked at random from those above, as already listed:
Value order: CBX7 inh, CBX7 inh z-score
- COc1ccc(NC(=O)CCNS(=O)(=O)c2ccc3c(c2)CCC(=O)N3)cc1OC
    0.96, -1.8
- O=C(CCCN1C(=O)c2cccnc2C1=O)N1CCN(c2ccccc2)CC1
    0.49*, -4.9*
- Cc1cccc(C)c1NC1c2ccccc2C(=O)N1c1ccc(Cl)cn1 (configuration not stated)
    0.74, -7.1
- C=CCN1C(=O)c2ccccc2Sc2ccc(C(=O)NCc3ccccc3OC)cc21
    1.1, 0.097
- Cc1cccc(C)c1N(C)S(=O)(=O)c1ccc2[nH]cc(C(=O)N3CCCCCC3)c(=O)c2c1
    1.1, 0.66

Continuation.
Value order: CBX7 inh, CBX7 inh z-score
- O=C(Nc1cccc(-c2cn3ccccc3n2)c1)c1ccccc1F
    0.96, -0.52
- CCOc1ccccc1NC(=O)CSc1nnc(Cc2cccn2C)n1-c1ccc(C)cc1
    0.92, -1.8
- CCOC(=O)C(C)NC(=O)c1cc2c(s1)-c1ccccc1OC2 (configuration not stated)
    1.4, 5.9
- COC(=O)c1c(NC(=O)COc2ccc(F)cc2)sc(C)c1C
    1, 0.072
- COCC(C)NC(=O)C1CC(c2cc(OC)ccc2OC)=NO1 (configuration not stated)
    1.1, 2.1
- CCCSc1oc(-c2ccc(C)cc2)nc1S(=O)(=O)c1ccc(Br)cc1
    0.89, -0.94
- CCc1ccc(OCc2nnc(NC(=O)c3ccccc3F)s2)cc1
    1.1, 0.89
- CC(C)Oc1ccc(NC(=O)C2CCCNC2=O)cc1 (configuration not stated)
    1, 0.13
- COC(=O)c1ccc(C(=O)Nc2sc3c(c2-c2nc4ccccc4s2)CCC(C)C3)cc1 (configuration not stated)
    1, 0.68
- O=C(CN1C(=O)COc2ccc(Cl)cc21)NC1CCCCCCC1
    0.82, -2.1
- Cc1nccn1-c1nc(-c2ccc(Cl)cc2)cc(C(F)(F)F)n1
    1, 0.53
- CCOc1ccc(C(=O)Nc2cccc(-c3nc4cc(Cl)ccc4o3)c2)cc1
    1.1, 0.29
- CCOc1ccc(-c2nc(C#N)c(N3CC(C)OC(C)C3)o2)cc1 (configuration not stated)
    1.1, 0.88
- Cc1ccc(-n2c(=O)cc(N3CCc4ccccc43)[nH]c2=O)cc1
    0.99, -0.55
- CC(=O)Nc1ccc(NC(=O)c2cc3sccc3n2Cc2ccc(F)cc2)cc1
    0.89, -2.7
- Cc1nc(C)c(-c2csc(Nc3cccc(Cl)c3C)n2)s1
    0.89, -1.4
- COc1ccc(Nc2cc(C)nc3ccc(C)cc23)cc1
    0.79, -2.2
- O=C(NCc1ccccn1)c1ccc2c(=O)n(CCc3ccccc3)c(=O)[nH]c2c1
    0.9, -2.4
- Cc1noc(C(=O)Nc2ccc(F)cc2F)c1Cl
    1.1, 2.8
- COc1ccccc1C(=O)Nc1cc(-c2nc3cc(C)cc(C)c3o2)ccc1C
    0.98, -0.81
- O=C(CCN1C(=O)COc2ccccc21)N1CCN(c2ccccc2)CC1
    1, 0.027
- Oc1ccccc1-c1nc(NC2CCCCC2)c2ccccc2n1
    1.4, 1.2
- Cc1ccccc1Nc1c(-c2cccs2)nc2ccc(Br)cn12
    0.77, -2.3
- CCOC(=O)C1CCN(C(=O)CCc2c(C)nc3cc(-c4ccc(Cl)cc4)nn3c2C)CC1
    1, 0.6
- C=CCn1c(C2CC(=O)N(c3cc(C)cc(C)c3)C2)nc2ccccc21 (configuration not stated)
    1.6, 2.5
- COc1ccc(C2CC(=O)N2C2(C(=O)Nc3c(C)cccc3C)CCCCC2)cc1OC (configuration not stated)
    0.98, -0.36
- CC(=O)Nc1ccc(C2(c3ccc(NC(C)=O)cc3)C(=O)Nc3ccccc32)cc1
    1, 0.27
- COc1ccc(N2C(=O)CC(NCc3ccc(Cl)c(Cl)c3)C2=O)cc1 (configuration not stated)
    1, 2.5
- CN(C)C(CNS(=O)(=O)c1ccc(F)cc1)c1cccnc1 (configuration not stated)
    0.89, -0.95
- Cc1cc(NCc2cccnc2)c2ccc(Cl)cc2n1
    1, 1.3

Ordered by the number under CBX7 inh z-score (lowest first): seven from the list above
Structure,CBX7 inh z-score
Cc1ccccc1Nc1c(-c2cccs2)nc2ccc(Br)cn12,-2.3
CN(C)C(CNS(=O)(=O)c1ccc(F)cc1)c1cccnc1 (configuration not stated),-0.95
COc1ccc(C2CC(=O)N2C2(C(=O)Nc3c(C)cccc3C)CCCCC2)cc1OC (configuration not stated),-0.36
CCOC(=O)C1CCN(C(=O)CCc2c(C)nc3cc(-c4ccc(Cl)cc4)nn3c2C)CC1,0.6
Oc1ccccc1-c1nc(NC2CCCCC2)c2ccccc2n1,1.2
Cc1cc(NCc2cccnc2)c2ccc(Cl)cc2n1,1.3
C=CCn1c(C2CC(=O)N(c3cc(C)cc(C)c3)C2)nc2ccccc21 (configuration not stated),2.5

(further entries)
Value order: CBX7 inh, CBX7 inh z-score
- Cc1ccc(CCNC(=O)C2CCC(=O)N2Cc2ccc(F)cc2)cc1 (configuration not stated)
    1, 0.55
- CCN1CCN(c2cc(C)nc3c(-c4ccc(Cl)cc4)c(C)nn23)CC1
    1.5, 4.8
- Cc1ccc(CN2C(=O)c3ccccc3Sc3ccc(C(=O)NCCCN4CCCCC4)cc32)cc1
    0.9, -1.4
- CC(=O)N1CCc2cc(S(=O)(=O)NCCc3ccc(C)cc3)ccc21
    1.1, 1.9
- Cc1cc(C)cc(OCC(=O)Nc2cccc(-c3nc4cc(C)cc(C)c4o3)c2)c1
    1.1, 3.2
- COc1ccc(CCNC(=O)CN2C(=O)COc3ccc(C(C)(C)C)cc32)cc1OC
    0.53, -8.1
- Cc1ccc(C)c(NC2c3ccccc3C(=O)N2Cc2ccccc2Cl)c1 (configuration not stated)
    0.97, -0.35
- CCOC(=O)c1c(NC(=O)c2ccccc2F)sc(C(=O)N2CCCCC2)c1C
    1.1, 1.5
- CC(=O)Nc1ccc2c(c1)nc(C)n2-c1ccccc1
    0.84&0.99, -2.2&-0.18
- COc1ccccc1-n1cnc2cc(C(=O)N3CCOCC3)ccc21
    1, 0.0061

Screening data: PubChem BioAssay, several laboratories
